CapD inh: Bacillus anthracis CapD inhibitors, primary screen, biochemical, fluorescence intensity; purified CapD enzyme, fluorescence intensity read-out; active compounds read low; some hits fall short of the stated cut; z-score (concentration not given with the values); 0.23% of 140,000 active;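 active = z-score under -4 in either of two replicates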;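 note: stock transfer was 100 nL into about 40 µL; score is relative to mean and spread of the plate; one replicate is shown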
AID504770: growth inhibition of E. coli YBA685, primary screen, V. cholerae RctB inhibitors | E. coli YBA685 rctB-dependent plasmid, OD600 growth, 3 h; active compounds read low | z-score (concentration not given with the values) | 0.27% of 130,000 active;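 active = z-score under -2 on both plates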;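 note: wells of about 30 µL received 100 nL stock; score is relative to mean and SD of the test wells; the first replicate is given; strong numbers were not always called active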
The depositor's hits bear a star; nt = no result given.

smiles	AID504770	CapD inh
CCc1nc(SCC(=O)NCc2ccccc2)c2c(=O)n(C)c(=O)n(C)c2n1	1.5	nt
N#CCCN(Cc1ccco1)S(=O)(=O)c1ccccc1	-0.55	-0.6
NC(=O)c1ncn([C@@H]2O[C@H](CO)[C@H](O)C2O)n1 (some centres undefined)	nt	0.49
O=C(O)CCCC(=O)N1CCc2c([nH]c3ccccc23)C1C(F)(F)F (centres undefined)	0.55	1
Clc1nc(-c2ccccc2)nc2ccsc12	-0.25	0.49
Cn1c(=O)[nH]c(=O)c2c1nc1n2CCCC1c1ccccc1 (centres undefined)	0.2	1.6
O=C(Nc1cc2cc(Br)ccc2oc1=O)C1CCCCC1	-0.45	0.12
CC(C)[C@H](NC(=O)Cc1ccccc1)C(=O)OCn1nnc2ccccc2c1=O	-1.1	nt
C=CCNCc1cc2cc(C)cc(C)c2[nH]c1=O	-1.9	nt
COC(=O)c1ccsc1NC(=O)C1=COCCO1	-1.1	nt
COc1cccc(NC(=O)CN(C)C(=O)Cc2ccccc2F)c1	-2.2	nt
Cc1nn(CCC#N)c(NC(=O)c2ccc(Cl)cc2)c1P(=O)(Nc1ccc(F)cc1)N1CCOCC1 (centres undefined)	1.2	nt
COc1cc2c(cc1OC)CN(CC1=CCC3CC1C3(C)C)CC2 (centres undefined)	-0.05	0.95
O=C(Nc1ccc(-c2noc(-c3ccc([N+](=O)[O-])cc3Cl)n2)cc1)c1ccc(Br)o1	nt	-0.15
COc1cc2c(cc1OC)C(Nc1cc(C)ccc1C)=NC(C)(C)C2	nt	-0.015
CCOC(=O)c1cnc(Sc2ccccc2N)nc1C(F)(F)F	-0.25	-1.1
COc1ccc(Cn2ccc(O)c(C/C=C/c3ccccc3)c2=O)cc1OC	nt	-0.33
N#Cc1c(N)n(Cc2ccccc2)c2nc3ccccc3nc12	-0.1	13
CCOCCOC(=O)C1=C(C)NC2=C(C(=O)CC(c3ccc(Cl)cc3)C2)C1c1cccc(OC)c1 (centres undefined)	nt	55
CC(=O)N1C/C(=N/NC(N)=S)c2cc(Br)ccc21	1.1	0.96
Cc1nc2ccc(NC(=O)C3=NN(C)C(=O)CC3)cc2s1	0	nt
COC(=O)Nc1sc(-c2ccc(Cl)cc2)nc1-c1cccs1	0.4	-0.28
CC1CC(C)(C)OC(C[N+]2(C)CCCCC2)O1 (centres undefined)	0.7	-0.35
N=C1S/C(=C/c2ccccc2)C(=O)N1c1nonc1N	1.1	-1.2
COc1ccc(C(=O)Oc2ccc3c(=O)c(Oc4ccccc4Br)coc3c2)cc1OC	nt	-0.66
O=C(CCn1cnc2onc(-c3ccc(F)cc3)c2c1=O)Nc1cccc(Cl)c1	0.35	-1.2
CC1(Cc2nc3ccccc3[nH]2)OCCO1	-0.3	0.51
COc1ccc(C2CC(=O)C3=C(C2)Nc2ccccc2N(C(C)=O)C3c2ccco2)cc1OC (centres undefined)	-0.4	4.2
CC1C(c2ccccc2)N(C)C(c2ccccc2)C(C)C1(O)Cc1ccccc1 (centres undefined)	nt	-1.1
O=C(C1c2ccccc2Oc2ccccc21)N1CCCc2ccccc21	0.1	2.3
CCC(=O)N(Cc1cc2ccccc2[nH]c1=O)C(C)C	-1.1	nt
CN(C)CCNC(=O)c1cc(Cl)c(=O)n(Cc2ccc(Cl)cc2)c1	nt	-0.11
Cc1cccc(N(C)C(=O)c2cc3c(=O)oc4ccccc4c3s2)c1	nt	-0.005
O=C1N(c2ccccc2)C(c2ccco2)C1(F)F (centres undefined)	1	-0.46
O=C(CSc1ccccc1C(=O)NCCCN1CCCC1=O)NCc1ccco1	-0.15	nt
COC(=O)c1csc(S(=O)(=O)NCc2nn(-c3ccccc3)nc2C)c1OC	2	-0.045
CCOC(=O)C1CCCN(C(=O)c2c[nH]c3ccc(S(=O)(=O)N(C)c4ccc(OCC)cc4)cc3c2=O)C1 (centres undefined)	nt	0.53
O=C(CNc1ccccc1C(=O)NCc1ccco1)Nc1ccccc1Cl	-0.55	nt
CC1Cn2c(nnc2-c2cc3ccccc3cc2O)S1 (centres undefined)	1.8	0.5
O/N=C1\CCC2CN(C3CCCCC3)CC2C1 (centres undefined)	-0.3	0.66
O=C(Cc1cc2ccccc2[nH]1)NC(C(=O)Nc1ccc2c(c1)OCO2)c1ccccc1 (centres undefined)	-0.6	-0.48
Cc1ccc(N2CCN(c3ccc(C)cc3)C2c2ccncc2)cc1	-0.45	0.12
CCc1ccccc1S(=O)(=O)Cc1ccc(C(=O)NC(C)C)o1	-0.2	-0.81
CCOC(=O)c1cnn(C(C)(C)C)c1C1CCN(C(=O)OC(C)(C)C)CC1	0.3	0.72
O=S1(=O)CCC(NS(=O)(=O)c2ccc(Cl)cc2)C1 (centres undefined)	nt	-0.96
Cc1ccc(NC(=O)NCCCN2CCOCC2)cc1	-0.65	-0.42
CSC1=NC2(CCCCC2)C2=C(CCCC2)N1	0	nt
O=C(O)C1CCC(=O)N1C(=O)/C=C/c1ccccc1 (centres undefined)	-0.75	nt
CCOc1cc2c(c([N+](=O)[O-])c1)NC(c1cccc(Cl)c1Cl)C1CC=CC21 (centres undefined)	nt	-0.92
Cc1cn2ccccc2c1P(=Nc1ccccc1)(N1CCOCC1)N1CCOCC1	1.1	nt
CCOC(=O)c1nnn(-c2nonc2N)c1CSc1nc2ccccc2[nH]1	nt	1.2
COc1cccc(NC(=O)CSc2cn(CC(=O)N3CCOCC3)c3ccccc23)c1	-0.4	0
O=C1NC(=Nc2cccnc2)S/C1=C/c1ccc(O)cc1	-0.05	-0.35
CC(C)OC(=O)Oc1ccc2oc(=O)sc2c1	-0.8	-0.28
O=C(Cn1cnc2ccccc2c1=O)N1CCc2ccccc21	0.65	nt
C/C(=N\NC(=O)CCc1ccccc1)c1cccc(N)c1	-0.45	nt
Cc1ccc(N2Cc3ccccc3C2=N)cc1	1.4	nt
CCOC(=O)CSc1nc2c(sc(=S)n2-c2ccccc2)c(=O)[nH]1	nt	-0.74
N#CC1=C(N=Cc2cc(Cl)cc(Cl)c2O)CCC1	1.4	0.15
CS(=O)(=O)N1CCN(c2cccc(Cl)c2)CC1	-0.65	0.06

More structures:
smiles	AID504770	CapD inh
O=C(NC1CC1)c1ccc2ccccc2n1	0.85	nt
CN1C(=O)c2ccccc2C(C(=O)Nc2ccc(F)c(Cl)c2)C1c1c[nH]c2ccccc12 (centres undefined)	0.35	-0.97
CC(=O)Nc1ccc(/C=N/NC(=O)c2ccc(C(F)(F)F)cc2)cc1	nt	0.98
O=C(Cn1ncc2c1-c1ccccc1OC2)NCc1cccs1	1.5	-0.29
COc1cc2nc(CN3CCCC3c3cccs3)[nH]c(=O)c2cc1OC (centres undefined)	-0.1	nt
CC(C)c1ccc(NC(=O)C2CCC(CNS(=O)(=O)c3cccc4cccnc34)CC2)cc1 (centres undefined)	-0.85	0.09
O=C(CN1CCC(n2nnc3ccccc32)CC1)Nc1cccc(F)c1	1.1	nt
N#Cc1c(-c2ccccc2)c2cc(Cl)ccc2n1Cc1ccc([N+](=O)[O-])cc1	nt	2.4
CC(C)(C)C(=O)/C=C1\SCC(=O)N1CC(=O)Nc1ccccc1C#N	2.4	nt
CC(C)N1CC(COc2ccccc2Cl)OC1=O (centres undefined)	-1.1	0.02
COc1ccc(C2CC(C(F)(F)F)n3nc(C(=O)NCCc4ccccc4)c(Cl)c3N2)cc1OC (centres undefined)	nt	0.21
O=C(C/C=N\OCc1ccc(Cl)c(Cl)c1)Nc1ccc(F)cc1F	nt	-0.02
COc1cccc(C2Nc3ccccc3C(=O)N2NS(=O)(=O)c2ccc(C)cc2)c1O (centres undefined)	-0.5	57
COc1ccc(NC(=O)COC(=O)C2CC(=O)N(Cc3ccc(C)cc3)C2)cc1 (centres undefined)	2.2	-0.44
COc1cc(/C=N/OCC(=O)N2CCN(C(C)=O)CC2)ccc1OC(F)F	0.9	nt
Cc1cccc(-n2ncc3c(N(CC(C)C)CC(C)C)ncnc32)c1	-0.55	-1.4
Cc1ccc(C(=O)CSc2nccn2-c2ccccc2)cc1	-0.4	-0.26
CCN1CC2=C(OC(N)=C(C#N)C2c2cccs2)/C(=C\c2cccs2)C1 (centres undefined)	-0.35	-0.41
Cc1ccccc1-n1ncc(C(=O)O)c1C	0.2	-0.41
O=C(Oc1cccc2cccnc12)c1cccc(Cl)c1	0.65	-0.085
C=CCn1c(C)cc(-c2csc(CC#N)n2)c1C	-0.1	nt
CCC1CCc2c(sc(NC(=O)c3c(-c4ccccc4)noc3C)c2C(N)=O)C1 (centres undefined)	nt	-0.045
c1coc(CSCc2cn3cccnc3n2)c1	0.5	6.3
O=C(Nc1ccc(CCC(=O)N2CCCC2)cc1)c1cc2ccccc2o1	-0.35	0.29
c1cncc(-c2nc(NCC3CCCO3)c3ccccc3n2)c1 (centres undefined)	-0.1	nt
CCn1c(SCC(=O)N2CCCC2)nnc1-c1c[nH]c2ccccc12	-0.75	-0.075
NC(=O)CSc1nc(=O)n(Cc2cccnc2)c2c1CCC2	1.1	nt
COc1ccc(NC(=O)c2cc3nc(-c4ccc(Cl)cc4)cc(C(F)(F)F)n3n2)cn1	nt	-1.2
CN1CCC(N(C(=O)/C=C/c2ccccc2)C2CCN(C)CC2)CC1	nt	-0.51
Cc1c(C(C)OC(=O)Nc2ccc(Cl)c(Cl)c2)sc2ncnn12 (centres undefined)	nt	-0.69
CS(=O)(=O)N1CCC(c2nc3c(nnn3Cc3ccc(F)cc3)c(=O)[nH]2)CC1	2.1	nt
Cc1cccc(CC2S/C(=N\c3ccccn3)NC2=O)c1 (centres undefined)	nt	0.52
CC1(C)CC2(CCCN(CC#N)C2)CCO1 (centres undefined)	0.45	29
CC(C)(C)c1ccc(-c2nc(C#N)c(NCc3ccccc3)o2)cc1	0.75	72
CN1C/C(=C\c2ccccc2F)C(=O)/C(=C/c2ccccc2F)C1	0.8	0.97
COC(=O)C(C)Sc1nc2ccccc2[nH]1 (centres undefined)	nt	0.61
Cc1ccc(C(=O)C2N=C(N)OC2c2ccccc2)cc1 (centres undefined)	-0.7	0.33
CC(=O)Oc1ccc(/C=N/NC(=O)c2ccc3ccccc3c2)cc1	nt	0.81
COc1ccc(NC(=O)CSCC(=O)O)c(N2CCOCC2)n1	0.15	0.29
COC(=O)c1ccc(S(=O)(=O)N(CCO)Cc2ccccc2)n1C	-0.5	0.19
CCOc1ccc2c(c1)-c1c(ssc1=S)C(C)(C)N2C(=O)CSc1nccn1C	nt	0.21
NS(=O)(=O)c1ccc(NC(=O)COc2cccc3ccccc23)cc1	-0.15	0.57
CCCCc1nc2c(=O)[nH]c3ccccc3c2o1	-0.45	-0.64
COc1nc(Oc2nc(OC)nc(N3CCCC3)n2)nc(N2CCCC2)n1	-0.25	-0.24
CCOC(=O)C(NC(=O)c1cccc(C(F)(F)F)c1)(Nc1sc2c(c1C#N)CCCC2)C(F)(F)F (centres undefined)	nt	0.11
S=C1SCN(CCc2ccccc2)CN1CCc1ccccc1	nt	0.35
Cc1cc(NC(=O)/C=C/c2ccco2)n(-c2nc3ccccc3n2Cc2ccc(Cl)c(Cl)c2)n1	0.1	nt
c1ccc(-c2ncsc2-c2ccccc2)cc1	-0.3	-0.62
Cn1ncc2nnn(-c3ccccc3)c(=O)c21	-0.35	0.15
CCCN1C(=O)C2C(C(=O)Nc3cccc(OC)c3)C3C=CC2(O3)C1C(=O)NC1CCCCC1C (centres undefined)	0	0.64
CCC(=O)Nc1ccccc1-c1nc2ccccc2[nH]c1=O	0.45	nt
Cc1ccc(C(=O)Nc2cccc(N3CCCC3)c2)cc1	-0.7	-0.63
CCC(=S)/C=C1\Sc2ccc(OC)cc2N1CC	-0.6	16
CCOc1cc(/C=C2\N=C(c3ccccc3)OC2=O)cc(Br)c1OC(C)=O	nt	-0.025
CN=c1scc(-c2ccc3c(c2)OCCO3)n1/N=C/c1c[nH]c2ccccc12	0.45	nt
CC(c1ccccc1)N1C(=O)CC(Nc2ccc(N(C)C)cc2)C1=O (centres undefined)	0.7	-0.78
O=c1nc2cc3[nH]c4c(=O)c5ccccc5c4[nH]c3cc2n1	0.4	nt

Screens deposited in PubChem by ICCB-Longwood Screening Facility, Harvard Medical School.

No enrichment for hits; overall some 0.37% were active at least once.
